Insulin prom inh – inhibitors of insulin promoter-driven GFP, primary screen, imaging, TRM-6 cells (human fetal islet line), eGFP reporter, cell count; inhibition, % at 2 µM; reporter expression induced with tamoxifen; 0.9% of 130,000 active;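 active = inhibition above the mean plus 3 SD, with well images judged a real hit on visual review, cut at about 60% in these data, passing the limit was not always enough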
GALR2 agonist – GALR2 receptor agonists, primary screen, cell-based | Galanin receptor type 2 (Homo sapiens), O43603 | GALR2-expressing cells, agonist activation read-out | activation, %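 (tested at 5 µM)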 | 0.48% of 140,000 active;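 active = above mean plus 3 SD of all compounds, about 5% in these data, not always enough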;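 also: 0% = vehicle buffer wells and 100% = reference agonist at full effect; tested in CHO reporter cells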
Target sequence (O43603 whole entry, looked up): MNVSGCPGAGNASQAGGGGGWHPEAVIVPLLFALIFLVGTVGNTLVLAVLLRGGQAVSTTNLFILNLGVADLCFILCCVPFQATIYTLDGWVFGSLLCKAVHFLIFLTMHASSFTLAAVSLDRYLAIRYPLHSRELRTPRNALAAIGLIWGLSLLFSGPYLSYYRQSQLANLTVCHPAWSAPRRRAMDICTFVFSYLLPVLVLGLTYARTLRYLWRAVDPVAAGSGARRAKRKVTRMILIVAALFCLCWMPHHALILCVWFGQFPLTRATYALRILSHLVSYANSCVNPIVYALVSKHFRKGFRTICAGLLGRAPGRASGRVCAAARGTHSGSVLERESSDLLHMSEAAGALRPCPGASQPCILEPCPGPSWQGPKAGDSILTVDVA
HSV augment – enhancers of HSV replication in host cells, fold increase, host cell viability | HSV replication augmentation in cells | maximum fold increase | 0.005% of 220,000 active | AID 1956, 2009;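 active = peak rise of 1.5-fold or more in the series; tested in PC3 cells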;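 also: first round at 10 µM; read as green reporter fluorescence; hits show the peak of a series up to 25 µM; 1 = signal of infected wells without compound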
PKD1 inh – inhibitors of human PKD1 kinase, biochemical, fluorescence polarization | Serine/threonine-protein kinase D1 (Homo sapiens), Q15139 | PKD1 kinase fluorescence polarization assay | inhibition, %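 (about 10 µM by stock and volumes)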 | 0.056% of 200,000 active;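 active = inhibition of 50% or more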;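 also: controls were vehicle for no effect and a reference inhibitor for full effect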
RGS16-Gao – modulators of RGS16 binding to Galphao, primary screen, biochemical, human proteins, multiplexed bead flow cytometry; bead-based flow cytometry RGS16-Galphao binding, fluorescence; actives lie on both sides; binding response (% of control), % at 10 µM; 0.38% of 220,000 active; Regulator of G-protein signaling 16 (Homo sapiens) + Guanine nucleotide-binding protein …;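 active = below 25% or above 175%, edge rows of some plates excepted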;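 also: Galphao activated by GDP with aluminum fluoride before binding; 100% = wells without compound and 0% = beads without RGS; some results beyond the cut were filed as inactive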
Target sequence (O15492 whole entry, looked up): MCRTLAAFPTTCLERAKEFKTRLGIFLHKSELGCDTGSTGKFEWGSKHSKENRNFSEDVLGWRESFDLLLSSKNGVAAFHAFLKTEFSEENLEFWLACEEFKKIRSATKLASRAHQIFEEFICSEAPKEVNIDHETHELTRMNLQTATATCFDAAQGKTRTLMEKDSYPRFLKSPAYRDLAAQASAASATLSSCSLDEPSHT
Target sequence (P09471 whole entry, looked up): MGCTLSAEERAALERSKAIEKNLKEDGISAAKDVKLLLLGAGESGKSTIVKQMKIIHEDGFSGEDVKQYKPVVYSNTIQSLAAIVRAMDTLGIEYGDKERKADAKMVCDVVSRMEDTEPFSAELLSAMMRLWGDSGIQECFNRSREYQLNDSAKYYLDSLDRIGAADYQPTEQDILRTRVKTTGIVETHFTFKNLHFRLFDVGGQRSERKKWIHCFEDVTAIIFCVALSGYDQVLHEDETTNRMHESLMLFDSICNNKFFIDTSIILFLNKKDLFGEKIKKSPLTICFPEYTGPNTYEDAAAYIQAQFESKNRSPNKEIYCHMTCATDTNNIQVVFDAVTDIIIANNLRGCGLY
Insulin prom inh cell count – second read-out of Insulin prom inh, no call of its own (marks repeat the call); normalized cell count, %; measured here: cell count, toxicity; reference of the scale not given here;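 cells exposed to compound for 48 h; stained nuclei by imaging scaled within each plate; lower means fewer cells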
HSV augment primary fold – second read-out of HSV augment, no call of its own (marks repeat the call); fold increase; compound at 10 µM; measured here: primary screen fold increase 10 uM; tested in PC3 cells;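 GFP signal in the first replicate; 1 = infected wells without compound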
Starred values were filed as active, the others as inactive; i = inactive; . = not tested or not shown.

SMILES	Insulin prom inh	Insulin prom inh cell count	GALR2 agonist	HSV augment	HSV augment primary fold	PKD1 inh	RGS16-Gao
CN(C)S(=O)(=O)c1ccc(C(=O)OCC(=O)NC(=O)NCc2ccccc2)cc1	.	.	-0.1	i	0.95	-5.3	107.7
O=C(CSc1c(Cl)cccc1Cl)N1CCC(c2nc3ccccc3s2)CC1	-38.2	113.5	-0.1	i	0.94	-5.0	104.5
Cc1csc(SCC(=O)NCCc2ccc(Cl)cc2Cl)n1	-46.7	114.1	-0.6	i	1.1	0.5	104.1
COc1ccc(CNC(=O)C2CCN(S(C)(=O)=O)CC2)cc1	0.0	83.3	.	.	.	-6.5	94.6
O=C(Nc1c2c(nn1-c1ccc(Cl)cc1)CS(=O)(=O)C2)c1ccc2c(c1)OCO2	-18.2	163.3	0.2	i	0.94	-7.2	102.9
CC(=O)NCCC(=O)Nc1ccc(F)cc1C	14.7	106.5	-1.9	i	1.01	0.8	102.0
CCc1ccccc1NC(=O)Cc1cn(C)c2ccccc12	0.0	32.3	.	i	1	0.9	100.8
O=C(Nc1ccccn1)NC1CCS(=O)(=O)C1 (stereo not given)	.	.	-0.9	i	0.81	3.4	-92.4*
N#Cc1ccc(Cl)cc1NC(=O)COC(=O)c1ccc(S(=O)(=O)N2CCCC2)cc1	-46.0	76.1	-1.1	.	.	1.8	113.0
CCOc1ncccc1C(=O)N1CCCSC1=Nc1ccc(C(C)=O)cc1	.	.	.	i	0.99	-3.5	104.3
NC(=NC(=O)c1ccc(Cl)cc1)N1N=CCC1c1ccccc1 (stereo not given)	-15.0	110.2	.	i	1.02	9.6	99.1
CN1CC(c2ccc(Cl)c(Cl)c2)[C@@]2(COc3ccccc3C2=O)[C@@]12C(=O)Nc1ccccc12 (stereo not given in full)	.	.	-2.8	i	0.76	4.0	95.8
O=C(CN1CCN(Cc2ccccc2)CC1)N/N=C/c1cccnc1	.	.	.	i	1.2	.	101.9
O=C(CSc1nnnn1-c1ccc(F)cc1)NNC(=O)c1ccco1	.	.	.	i	0.91	.	99.7
COc1cccc(CNC(=O)CC(NC(C)=O)c2ccccc2)c1 (stereo not given)	35.7	125.0	.	i	0.99	-2.1	99.4
CCN(c1ccc(NS(=O)(=O)c2cc(Cl)ccc2Cl)cc1)C(C)C	69.2*	101.2*	-0.4	i	1.02	-2.3	97.2
S=c1[nH]nc(-c2ccc(Br)cc2)n1Cc1ccco1	0.0	101.9	-1.5	i	0.9	-11.6	96.5
CCOc1ccccc1Oc1ccc(C(F)(F)F)cn1	-180.9	44.3	-1.4	i	1.02	-7.2	151.6
COCCNC(=O)CN(c1ccc(OC)c(OC)c1)S(=O)(=O)c1ccc(C)cc1	-3.1	120.8	-1.4	i	0.9	-1.2	95.2
COc1ccc(OC)c(NC(=O)c2cc(S(=O)(=O)NCc3ccco3)ccc2F)c1	.	.	-3.2	i	0.71	-8.2	98.6
O=C(O)c1cccc2c1C(=O)c1ccccc1C2=O	.	.	.	i	0.98	-2.3	97.0
Brc1ccc(Nc2ncnc3[nH]ncc23)cc1	.	.	.	i	0.96	.	96.3
CC1CCCC(C)N1/N=C/c1ccc(Cl)cc1 (stereo not given)	32.3	165.8	-0.7	i	1.03	-2.1	101.2
O=C(O)CCc1n[nH]c(=S)[nH]c1=O	.	.	-1.6	i	0.93	-20.5	127.7
Cc1c(C(=O)N/N=C/c2ccc(O)cc2)sc(=S)n1C	-20.0	165.1	-0.1	i	0.91	1.9	100.0
CC(C)c1ccc(NC(=O)C2CC(=O)Nc3nc4ccccc4n32)cc1 (stereo not given)	.	.	.	i	0.89	.	97.7
CCOC(=O)c1c(N)nn(C(=O)C(C)(C)C)c1-c1ccccc1	.	.	-0.5	i	0.7	-6.9	101.4
CCOc1ccc(NC(=O)CSc2nnc(-c3ccoc3C)n2CC2CCCO2)cc1 (stereo not given)	-237.5	116.2	-0.8	i	1.01	-1.2	107.0
O=C(CSCc1ccccc1Cl)NN1C(=O)c2ccccc2C1=O	.	.	-2.3	i	0.96	7.3	104.0
COc1ccc2c(=O)c(-c3ccc(OC)c(OC)c3)coc2c1	.	.	.	i	0.86	5.6	103.7

5 structures from above, ordered by length of the SMILES, rising:
SMILES	Insulin prom inh	Insulin prom inh cell count	GALR2 agonist	HSV augment	HSV augment primary fold	PKD1 inh	RGS16-Gao
CC1CCCC(C)N1/N=C/c1ccc(Cl)cc1 (stereo not given)	32.3	165.8	-0.7	i	1.03	-2.1	101.2
CCOc1ccccc1Oc1ccc(C(F)(F)F)cn1	-180.9	44.3	-1.4	i	1.02	-7.2	151.6
O=C(O)c1cccc2c1C(=O)c1ccccc1C2=O	.	.	.	i	0.98	-2.3	97.0
Cc1c(C(=O)N/N=C/c2ccc(O)cc2)sc(=S)n1C	-20.0	165.1	-0.1	i	0.91	1.9	100.0
COc1ccc2c(=O)c(-c3ccc(OC)c(OC)c3)coc2c1	.	.	.	i	0.86	5.6	103.7

Part of the list above, reduced to Insulin prom inh, HSV augment primary fold and PKD1 inh.
| SMILES | Insulin prom inh | HSV augment primary fold | PKD1 inh |
| --- | --- | --- | --- |
| O=C(CSCc1ccccc1Cl)NN1C(=O)c2ccccc2C1=O | . | 0.96 | 7.3 |
| COc1ccc2c(=O)c(-c3ccc(OC)c(OC)c3)coc2c1 | . | 0.86 | 5.6 |

The listing continues:
SMILES	Insulin prom inh	Insulin prom inh cell count	GALR2 agonist	HSV augment	HSV augment primary fold	PKD1 inh	RGS16-Gao
Fc1ccc(-c2n[nH]c(=S)n2/N=C/c2c[nH]c3ccccc23)cc1	.	.	-0.8	i	1	-7.0	91.0
COc1ccc([N+](=O)[O-])cc1NS(=O)(=O)c1ccc(C)cc1	.	.	.	i	0.95	.	102.9
COc1ccc(/C=N/Nc2cc(C)nc(-n3nc(C)cc3C)n2)c(OC)c1	.	.	-0.5	i	0.76	22.1	103.5
O=C(Nc1nnc(SCc2ccccc2Cl)s1)c1cccc([N+](=O)[O-])c1	.	.	-1.6	i	1	-8.6	98.6
O=C(CSc1nnc(SCC(=O)NCc2ccc3c(c2)OCO3)s1)NCc1ccc2c(c1)OCO2	9.1	153.7	-1.9	i	1.08	-4.0	-14.9
Cc1cc(C)nc(N2CCCC(C(=O)NCC(c3ccccc3)c3ccccc3)C2)n1 (stereo not given)	-17.2	62.8	5.8	i	0.89	-2.7	88.5
Cc1nc(N2CCCCC2)c2ccsc2n1	17.4	128.9	-2.7	i	0.79	-5.2	100.7
C=CCn1c(C)c(C(C)=O)c(N2CCOCC2)nc1=S	3.1	99.0	-0.8	i	0.87	-3.8	99.8
Cc1nc2ccccc2nc1CN1CCN(Cc2ccc(F)c(F)c2)C(CCO)C1 (stereo not given)	.	.	.	i	1	-9.5	102.5
CCOC(=O)c1ccc(N=C2SC(C(=O)Nc3ccc(C(=O)O)cc3)CC(=O)N2Cc2cccs2)cc1 (stereo not given)	.	.	.	i	0.97	-3.5	104.0
COc1ccc(C2C(C(=O)c3ccccc3)N3c4ccccc4C=CC3C2[N+](=O)[O-])cc1 (stereo not given)	-33.3	97.5	.	i	1.17	-2.1	93.5
CC(C)CCNC(=O)CCCOc1ccccc1	-28.1	71.2	-1.7	i	0.82	6.2	89.8
CCCC(=O)Nc1cc2c(cc1C(C)=O)OCCO2	.	.	.	i	1.05	-5.8	100.7
COCCCNC(=O)Cn1nnc(-c2ccc(NC(=O)c3ccccc3F)cc2)n1	-5.6	86.4	-3.0	i	0.93	-13.5	103.4
Cc1nc2nc(C)n(-c3ccccc3)c2s1	3.0	106.8	-2.9	i	1.02	0.9	91.5
COc1cccc(OC)c1C(=O)Nc1ccc2c3c(cccc13)CC2	16.1	67.9	-0.8	i	1.08	3.2	120.7
O=C(O)CN1C(=O)/C(=C\c2cn(CC(=O)N3CCOCC3)c3ccccc23)SC1=S	-5.0	85.1	.	.	.	-5.2	110.2
Cc1ccc(/C=N\NC(=O)Cc2cccn2C)o1	-22.2	121.1	.	i	0.92	9.5	71.4
COc1ccc(C)cc1NC(=O)c1ccc(OC(F)F)cc1	-20.0	126.7	-1.2	i	0.91	-3.6	99.7
COc1cc(C)nc(NCc2ccccc2)n1	21.2	177.0	-3.7	i	0.98	-10.0	112.1
C(=N\c1nccs1)/Nc1nccs1	-27.3	93.2	-2.4	i	1.02	3.1	104.7
Cc1ccc(-c2nc(C3CCCN(S(=O)(=O)c4ccc(C(C)(C)C)cc4)C3)no2)cc1 (stereo not given)	.	.	-1.2	i	1.03	-1.4	102.7
COc1cc(CN2CCc3ccccc3C2)ccc1O	.	.	.	i	0.69	.	104.1
Cc1cc(C(=O)N[C@H](c2ccccc2)[C@@]2(C)C[C@@H]2[C@@H](C)C(=O)Nc2ccc3ccccc3c2)no1	-28.6	87.4	-2.7	i	0.69	-12.6	102.1
O=C(NC1CCCCC1)C1c2ccccc2C(=O)N1Cc1ccc2c(c1)OCO2 (stereo not given)	25.9	97.2	.	i	1.04	3.4	74.0
Cc1n[nH]c(C)c1SCC(=O)Nc1ccc(F)cc1	-43.8	105.4	-0.8	i	0.997	-8.5	101.5
CCOC(=O)/C(C#N)=C/c1ccc(OC)c(OC)c1	.	.	16.1*	i	0.92	-1.5	100.4
Nc1nc(Nc2ccccc2)nc2ccccc12	6.1	98.6	-0.6	i	0.97	11.4	109.7
COc1ccc2c(C=O)cn(C)c2c1	.	.	.	i	0.83	-5.5	109.6
COc1ccc(N2CC(C(=O)NC3=NCCS3)CC2=O)cc1 (stereo not given)	19.1	64.7	.	i	0.8	-11.8	95.3
COc1cc(CCCN2C(=O)C(=O)NC[C@@H]2c2ccccc2)cc(OC)c1OC	.	.	.	i	0.99	.	115.3
CCOc1ccc2nc3sc(C(=O)N4CCN(C)CC4)c(N)c3cc2c1	3.0	116.2	-2.4	i	0.92	1.0	93.9
CCN(C(=O)Cn1c(=O)oc2ccccc21)c1cccc(C(F)(F)F)c1	45.5	180.9	-0.4	i	0.993	9.2	101.0
CCCCNC(=O)c1ccccc1NC(=O)CCC	50.0	182.8	.	i	0.99	1.3	95.7
Clc1ccc(Cc2ccccc2)nn1	0.0	48.5	-1.9	i	0.91	-4.5	97.2
C/C(=N/NS(C)(=O)=O)c1ccc2ccccc2c1	7.1	157.0	-3.1	i	0.79	-5.0	107.7
Cc1cnc(C(=O)OCC(=O)N2CCc3ccccc32)cn1	.	.	.	i	1.01	-1.6	104.5
O=C(CNC(=S)N(Cc1ccccc1)Cc1cccs1)NCc1ccc(F)cc1	0.0	59.3	.	i	0.81	4.0	102.9
CCNS(=O)(=O)c1ccc(NC(=O)Cn2cc([N+](=O)[O-])cn2)cc1	.	.	.	i	0.8	4.1	97.2
Cc1c(Cl)cccc1NC(=O)[C@@H](NC(=O)c1ccccc1Cl)C(C)C	-48.6	81.8	-1.8	i	0.94	-6.4	34.9
Cn1c(=O)c2c(nc(Oc3ccc4c(c3)OCO4)n2Cc2ccc(Cl)cc2)n(C)c1=O	-106.9	150.9	-0.8	i	0.94	1.3	100.4
CCS(=O)(=O)Nc1ccc(-c2cc(-c3ccccc3)c3cc(C)ccc3n2)cc1	.	.	0.2	i	0.95	-3.6	101.8
C=CCN1C(=O)/C(=C\c2ccc(Cl)cc2)N=C1SCC(=O)NC1CCCCC1	5.4	213.1	0.0	i	0.75	-4.6	100.5
CC(C)n1c(-c2ccc(C(C)(C)C)cc2)n[nH]c1=S	-38.2	118.2	-1.0	i	0.98	-8.1	102.1
Cc1ccc(C(=O)Nc2scc(-c3ccccc3)c2C(=O)O)o1	.	.	.	i	0.88	-5.2	104.9
CC(=O)Nc1nonc1NC(=O)c1ccc(C(C)(C)C)cc1	-21.6	110.6	-2.5	i	0.65	-5.8	97.8
CCCNC(=O)c1c(Cl)cnn1-c1ccc(C)cc1	.	.	.	i	0.94	-4.8	99.5
CCOC(=O)c1sc(/N=C/C2=C(O)CC(C)(C)CC2=O)c(C(=O)OCC)c1C	.	.	.	i	1.03	-7.7	108.8
O=C(NCCCN1CCOCC1)c1ccc(Cl)c(S(=O)(=O)N2CCCCCC2)c1	.	.	-1.5	i	0.89	3.8	85.1
Cc1ccc2oc(=O)c3cnn(CC(=O)NCCC(C)C)c3c2c1	50.0	102.9	-1.0	i	0.9	-4.8	99.2

Assay outcomes deposited in PubChem by several laboratories.
